Mtb hypoxia rep: reduces hypoxia-regulated biosensor signal in M. tuberculosis. AID 1159583. fluorescence inhibition, % (concentration not given with the values). M. tuberculosis hypoxia-regulated fluorescent reporter, fluorescence. 300,000 tested, 0.1% active;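 active means 35 to 45% if threefold the growth effect, above 45% if 1.5-fold the growth effect; inactive means the rest, general growth blockers included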;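 further: wells of about 50 µL received 100 nL stock; 0% = vehicle wells and 100% = reference inhibitor wells; whole bacteria with a GFP reporter of the hypoxia response; strong numbers were not always called active; many hits fall short of the cut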
Sa ugtP lethal: growth inhibition of S. aureus ugtP deletion strain. S. aureus RN4220 ugtP deletion, OD600 growth, 16 h; some inactives read as strong as hits. growth inhibition, % (concentration not given with the values). 330,000 tested, 0.54% active. AID 1259309;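 active means z-score under -3 and OD600 up to 0.15 on both plates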;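 further: plate controls were untreated wells for no effect and antibiotic for full effect; wells of about 80 µL received 100 nL stock; the first replicate is given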
BJeLR lethal: BJeLR cell viability loss | inhibition, % (no concentration beside the values) | BJeLR (HRASV12) viability, CellTiter-Glo ATP luminescence, 48 h; reference of the scale not given here | 300,000 tested, 0.17% active;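 active means replicate mean above 50%; inconclusive means above 50% but judged a plate artefact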;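 further: 50 nL library stock added to about 25 µL; numbers are from one replicate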
RN4220 kill: kills Staphylococcus aureus RN4220 | S. aureus RN4220 growth, OD600, 16 h | inhibition, % (no concentration beside the values) | 330,000 tested, 0.33% active;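 active means z-score of -3 or lower and OD600 up to 0.18 on both plates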;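 further: plate controls were untreated cells for no effect and reference antibiotic for full effect; stock transfer was 100 nL into about 80 µL; one replicate is shown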
PrP 5UTR inh: suppresses PrP 5' UTR mRNA reporter expression; cell-based PrP 5' UTR mRNA reporter, plate reader; inhibition, % (concentration not given with the values); 340,000 tested, 0.35% active; AID 488862;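 active means every replicate at 50% or more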;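 further: 0 = median of the neutral control wells; tested in H4 reporter cells; numbers are from one replicate; inactives centre near -14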
Autofluor counter: counter-screen for toxin protease inhibitors: compound fluorescence; compound autofluorescence counterscreen, microsphere flow cytometry; stronger effect = higher value; fluorescence intensity (no concentration beside the values); 360,000 tested, 3.1% active;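 active means at least 3 SD above the mean of all compounds, about 16000 in these data; inconclusive means too few beads counted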;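 further: 100 nL of 1 mM stock went into each well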
Mtb hypoxia rep growth: also measured in Mtb hypoxia rep; calls as there; growth inhibition, %; measured here: M. tuberculosis growth (absorbance);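 0% = vehicle and 100% = reference antibiotic; read after six days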
* hit, by the source's call; ? = inconclusive; · = no result given; & = joins results of further samples.

1) COc1ccc2[nH]c3c(c2c1)CCN1C(=O)C(CC(=O)NCCc2ccccn2)C[C@H](C(=O)N2CCOCC2)[C@@]31C (some centres undefined)
2) CCSc1nnc(NC(=O)c2ccc(C)o2)s1
3) COc1ccc(Nc2c(-c3ccc(C)cc3)nc3cnccn23)cc1
4) CS(=O)(=O)c1ccc2nc(NC(=O)Cc3ccccc3)sc2c1
5) CCCSc1nc2sc3c(c2c(=O)n1-c1ccc(OC)cc1)CCN(C)C3
assay / compound	1	2	3	4	5
Mtb hypoxia rep	-4	13	5	7	-6
Mtb hypoxia rep growth	6	9	16	4	-10
Sa ugtP lethal	-7	-2	0	13	18
BJeLR lethal	·	7	12	4	14
RN4220 kill	-0.4	1.1	2.7	-0.2	-2.1
PrP 5UTR inh	-39	-38	-18	-10	-23
Autofluor counter	3800	3671	4961	4682	5344

6) CC1=NN(C(=O)c2ccc(Cn3nc(C)c([N+](=O)[O-])c3C)o2)C(O)(C(F)(F)F)C1 (centres undefined)
7) COc1cc(OC)nc(-n2ncc(OC)c(Br)c2=O)n1
8) COc1ccc(-n2nnnc2-c2ccccc2)cc1
9) CCOC(=O)Oc1c(OC)cc(C(=O)OC2CC3CN4CCc5c([nH]c6cc(OC)ccc56)C4CC3C(C(=O)OC)C2OC)cc1OC (centres undefined)
10) CCOc1ncccc1C(=O)N=c1sccn1C
assay / compound	6	7	8	9	10
Mtb hypoxia rep	7	2	16	-20	-1
Mtb hypoxia rep growth	1	5	3	5	-7
Sa ugtP lethal	2	4	8	-7	-5
BJeLR lethal	-15	-26	-10	·	-4
RN4220 kill	1.1	2.2	6.4	2.4	-2.0
PrP 5UTR inh	-18	-34	-13	·	-14
Autofluor counter	2525	2404	8303	·	5993

11) CCc1ccccc1NC(=S)N1CCN(c2ccccn2)CC1
12) O=C1NCCN(Cc2c(F)cccc2Cl)C1CC(=O)N1CCCCO1 (centres undefined)
13) Cc1ccc(C)c(NC(=S)N2CCC(N(C)CC3CCCO3)CC2)c1 (centres undefined)
14) O=C(CN1CCN(Cc2ccc3c(c2)OCO3)CC1)Nc1ccc(F)cc1
15) COC(=O)C1=C(c2ccc3ccccc3c2)CC2CCC1N2C(=O)N1CCOCC1 (centres undefined)
assay / compound	11	12	13	14	15
Mtb hypoxia rep	8	-6	-1	11	10
Mtb hypoxia rep growth	0	6	6	2	7
Sa ugtP lethal	2	2	1	-1	6
BJeLR lethal	-5	1	-2	6	·
RN4220 kill	2.9	1.9	1.0	0.2	5.1
PrP 5UTR inh	-24	9	-15	1	·
Autofluor counter	2440	2129	10947	2566	·

16) O=C1c2cccnc2C(=O)N1Cc1ccc(F)cc1S(=O)(=O)NCc1ccco1
17) Cc1ccc(N(C(=O)Cc2cccs2)C(C(=O)NC2CCCCC2)c2ccccn2)cc1C (centres undefined)
18) Oc1ccc(N2CCN(C(c3ccncc3)c3nnnn3C3CCCC3)CC2)cc1 (centres undefined)
19) COc1cc2c(cc1OC)C(C(=O)N1CCOCC1)C(c1cccs1)N(C)C2=O (centres undefined)
20) O=C(COc1ccc2c3c(c(=O)oc2c1)CCC3)NCC1CCC(C(=O)O)CC1 (centres undefined)
assay / compound	16	17	18	19	20
Mtb hypoxia rep	7	0	21	11	15
Mtb hypoxia rep growth	3	0	4	6	-8
Sa ugtP lethal	7	1	7	5	2
BJeLR lethal	-7	7	3	4	6
RN4220 kill	4.9	3.1	1.5	1.5	1.2
PrP 5UTR inh	-23	-8	-26	-22	-31
Autofluor counter	5427	2539	9024	4373	6002

Of the compounds above, 3 contain a thiophene ring, fused or not.
5) CCCSc1nc2sc3c(c2c(=O)n1-c1ccc(OC)cc1)CCN(C)C3
17) Cc1ccc(N(C(=O)Cc2cccs2)C(C(=O)NC2CCCCC2)c2ccccn2)cc1C (centres undefined)
19) COc1cc2c(cc1OC)C(C(=O)N1CCOCC1)C(c1cccs1)N(C)C2=O (centres undefined)
assay / compound	5	17	19
Mtb hypoxia rep	-6	0	11
Mtb hypoxia rep growth	-10	0	6
Sa ugtP lethal	18	1	5
BJeLR lethal	14	7	4
RN4220 kill	-2.1	3.1	1.5
PrP 5UTR inh	-23	-8	-22
Autofluor counter	5344	2539	4373

(further entries)
21) COc1ccccc1NC(=O)COC(=O)C1CC1
22) N#Cc1c(SCC(=O)OCc2ccccc2)nsc1SCC(=O)OCc1ccccc1
23) O=C1OC(c2ccccc2)(c2ccc3cc(O)ccc3c2)c2ccccc21 (centres undefined)
24) CCOc1ccccc1NS(=O)(=O)c1cc2c3c(c1)CC(=O)N3CCC2
25) COc1ccc(NC(=O)N2Cc3ccccc3CC2C(=O)NC(C)(C)C)cc1 (centres undefined)
assay / compound	21	22	23	24	25
Mtb hypoxia rep	24	16	10	3	11
Mtb hypoxia rep growth	17	10	26	7	14
Sa ugtP lethal	8	5	93*	8	2
BJeLR lethal	-9	-5	·	1	8
RN4220 kill	4.4	4.7	-18	4.4	3.9
PrP 5UTR inh	-38	-28	-4	-19	-15
Autofluor counter	4276	9678	3619	6038	3179

Retrieved by structure from above (4):
12) O=C1NCCN(Cc2c(F)cccc2Cl)C1CC(=O)N1CCCCO1 (centres undefined)
21) COc1ccccc1NC(=O)COC(=O)C1CC1
13) Cc1ccc(C)c(NC(=S)N2CCC(N(C)CC3CCCO3)CC2)c1 (centres undefined)
15) COC(=O)C1=C(c2ccc3ccccc3c2)CC2CCC1N2C(=O)N1CCOCC1 (centres undefined)
assay / compound	12	21	13	15
Mtb hypoxia rep	-6	24	-1	10
Mtb hypoxia rep growth	6	17	6	7
Sa ugtP lethal	2	8	1	6
BJeLR lethal	1	-9	-2	·
RN4220 kill	1.9	4.4	1.0	5.1
PrP 5UTR inh	9	-38	-15	·
Autofluor counter	2129	4276	10947	·

(further entries)
26) Cc1ccc(-c2csc(Nc3ccccn3)n2)cc1
27) COC(=O)C1=C(C)N(C(C)C)C(=O)C1(NC(C)=O)C(F)(F)F (centres undefined)
28) CCOc1ccc(NC(=O)c2sccc2-n2cccc2)cc1
29) Cc1cccc(C(=O)NCCC(=O)Nc2nc(C)c(Cc3ccc4c(c3)OCO4)s2)c1
30) O=C(CSc1ccsc1[N+](=O)[O-])NCc1ccccc1
assay / compound	26	27	28	29	30
Mtb hypoxia rep	6	5	4	-13	7
Mtb hypoxia rep growth	11	6	13	-8	16
Sa ugtP lethal	19	2	24	2	9
BJeLR lethal	0	0	-2	0	-14
RN4220 kill	-4.8	3.1	14	3.7	9.5
PrP 5UTR inh	31	-17	-11	-12	-45
Autofluor counter	3294	9681	2590	1995	4039

31) COC(=O)CSc1nc2c(c(-c3ccc(C)o3)c1C#N)CCCC2
32) COC(=O)C1C(=O)OC(C)(C)C1C(C)C(=O)c1ccccc1 (centres undefined)
33) COc1ccc(NS(=O)(=O)c2ccc3c(c2)N(C(C)=O)CCS3)cc1
34) CN(CC(=O)Nc1ccc(N2CCOCC2)cc1)C(=O)c1cc(F)c(F)cc1Cl
35) Cc1ccc2cc(C#N)c(SCC(=O)N3CCCC3)nc2c1
assay / compound	31	32	33	34	35
Mtb hypoxia rep	13	6	-8	4	-3
Mtb hypoxia rep growth	11	2	-1	4	12
Sa ugtP lethal	23	-1	2	7	4
BJeLR lethal	-5	-1	-1	2	4
RN4220 kill	8.5	1.1	2.7	4.6	3.6
PrP 5UTR inh	-2	-25	-22	-28	-17
Autofluor counter	11026	9426	5523	?	3655

36) Cc1ccc(C(=O)N/C(=C\c2ccco2)C(=O)N2CCCCC2)cc1
37) O=C(CCS(=O)(=O)c1ccc2c(c1)NC(=O)CS2)NCc1ccccc1Cl
38) COc1ccc(C2SCC(=O)N2c2ccc(OC)cc2)cc1 (centres undefined)
39) O=C(/C=C/c1cccnc1)c1ccc(NC(=O)c2cccc(Br)c2)cc1
40) NC(=O)C1CCN(C(=O)c2ccccc2CCc2ccccc2)CC1
assay / compound	36	37	38	39	40
Mtb hypoxia rep	4	-5	3	·	-14
Mtb hypoxia rep growth	4	-2	1	·	-14
Sa ugtP lethal	4	1	-3	0	-3
BJeLR lethal	-3	-5	-8	3	6
RN4220 kill	2.7	4.6	-2.2	0.2	2.8
PrP 5UTR inh	-23	-16	-20	-31	-2
Autofluor counter	4117	5104	2910	4710	2668

41) CCOC(CNC(=O)C1CCN(S(=O)(=O)c2ccc3nc4c(c(C(=O)O)c3c2)CCCCC4)CC1)OCC
42) O=C(CSc1nnc(NC(=O)C2CC2)s1)Nc1ccc2c(c1)OCCO2
43) CCOC(=O)CSc1nnc(NC(=O)CCc2ccccc2)s1
44) COc1cccc(OCc2cc(C(=O)N3CCN(C(=O)c4ccco4)CC3)no2)c1
45) Cc1ccc(C(c2nnnn2Cc2cccs2)N2CCN(Cc3ccc4c(c3)OCO4)CC2)cc1 (centres undefined)
assay / compound	41	42	43	44	45
Mtb hypoxia rep	12	-9	5	8	·
Mtb hypoxia rep growth	6	-4	-6	8	·
Sa ugtP lethal	8	9	11	1	9
BJeLR lethal	4	-10	0	4	1
RN4220 kill	5.1	9.9	5.0	0.6	-2.4
PrP 5UTR inh	-6	-10	-2	-46	-12
Autofluor counter	4292	3954	4081	6317	3512

46) CCCc1nnc(SCC(=O)N2CCOCC2)n1CCCOC
47) Nc1ccc(CC2=NCCN2)cc1
48) COc1ccc(NC(=O)/C=C/c2ccccc2)cn1
49) COc1ccc(OC2C(=O)N(CCc3ccc(OC)c(OC)c3)C2c2ccc3c(c2)OCO3)cc1 (centres undefined)
50) COc1cccc2[nH]c3c(N4CCC(C(N)=O)CC4)ncnc3c12
assay / compound	46	47	48	49	50
Mtb hypoxia rep	-9	9	15	-2	12
Mtb hypoxia rep growth	-8	9	4	9	8
Sa ugtP lethal	7	6	-3	-1	5
BJeLR lethal	8	·	-1	-10	2
RN4220 kill	-4.9	1.8	4.1	-6.1	2.6
PrP 5UTR inh	-21	-20	-111	10	-8
Autofluor counter	3626	3819	2412	·	7512

51) O=C(Nc1nnc(C2CCCCC2)s1)C1CC(=O)N(c2ccccc2)C1 (centres undefined)
52) COc1cc(-c2nc3ccc(C)cn3c2NCc2ccccc2)ccc1-c1cccc(Cl)c1
53) CN1/C(=C\C(=O)COC(=O)c2ccc(O)cc2)C(C)(C)c2ccccc21
54) COc1ccc(NC(C)C(=O)Nc2cccc(S(=O)(=O)N3CCOCC3)c2)cc1OC (centres undefined)
55) C=CCN1C(=O)c2cccc3c(Br)ccc(c23)C1=O
assay / compound	51	52	53	54	55
Mtb hypoxia rep	-13	8	15	-3	6
Mtb hypoxia rep growth	-11	9	4	-5	18
Sa ugtP lethal	6	-16	10	-7	-4
BJeLR lethal	-6	·	12	·	-4
RN4220 kill	-0.1	17	4.7	-1.1	4.8
PrP 5UTR inh	-3	-12	-8	3	-18
Autofluor counter	3731	4021	3844	4616	4577

56) CNc1nnc(-c2ccc(N(C)C)cc2)s1
57) COc1cc(C2CC(=O)Nc3c2c(=O)nc2c(C)cccn32)cc(OC)c1OC (centres undefined)
58) Cc1ccc(S(=O)(=O)N2CCN(S(=O)(=O)N3CCC(C)CC3)CC2)c(C)c1
59) O=c1[nH]c(=O)n(C2CCCCC2)c(O)c1C=NCCCn1ccnc1
60) CCOC1OC(C(=O)NCc2ccccc2)=CC(C)C1CCCO (centres undefined)
assay / compound	56	57	58	59	60
Mtb hypoxia rep	0	15	-9	9	7&8
Mtb hypoxia rep growth	0	-4	8	2	6&12
Sa ugtP lethal	-2	7	4	-3	4&-3
BJeLR lethal	·	1	-8	-7	·
RN4220 kill	6.0	3.1	-1.7	9.7	4.4&2.0
PrP 5UTR inh	-11	-11	-14	-18	·
Autofluor counter	9908	1994	3754	2450	·

61) OC1C=CSc2nc3ccccc3n21 (centres undefined)
62) Cc1cccc(NC(=O)C(=O)C2C(=O)Nc3ccccc32)c1 (centres undefined)
63) COc1ccc(C)cc1NS(=O)(=O)c1ccc(-c2cnc(C3CC3)o2)cc1
64) O=C(O)C1Oc2cc3ccccc3cc2O1
65) O=[N+]([O-])c1ccc(S(=O)(=O)N2CCN(C3CCN(Cc4ccccc4)CC3)CC2)cc1
66) Cn1c(C(=O)N2CCc3ccccc3C2)cc2c(=O)n3ccccc3nc21
assay / compound	61	62	63	64	65	66
Mtb hypoxia rep	·	11	3	4	8	-4
Mtb hypoxia rep growth	·	-7	4	0	5	2
Sa ugtP lethal	-8	1	-9	-9	4	-2
BJeLR lethal	1	4	58*	7	-7	12
RN4220 kill	1.8	9.6	11	5.0	8.8	3.7
PrP 5UTR inh	-15	-15	76*	-6	-6	9
Autofluor counter	4346	3610	5221	4029	5199	3146

Source: PubChem (several laboratories)
